BasE inh – inhibitors of Acinetobacter baumannii siderophore enzyme BasE | actives 0.1% (n = 84,000) | inhibition, % (test concentration not listed) | purified BasE, fluorescence polarization binding displacement;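 active means both replicates above 25% with normal brightness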;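 further: 0% = negative plate control signal and 100% = positive plate control signal; stock transfer was 100 nL into about 30 µL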
KSHV LANA nucl – inhibitors of KSHV LANA binding to nucleosomes. actives 0.3% (n = 51,000). z-score (concentration not given with the values). FITC-LANA1-23 / chicken nucleosome fluorescence polarization; active compounds read low;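 active means both repeat wells score below -2 in polarization z-score versus plate sample wells, excluding overly bright wells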;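 further: 100 nL library stock added to about 30 µL; numbers are from one replicate; some results filed as inactive read as strong as hits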
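test system = FITC-LANA peptide and chicken nucleosomes | amount = 240 nM purified chicken nucleosomes (480 nM peptide binding sites), final | reagent = 50 nM FITC-LANA1-23 probe | medium = TEN-BT buffer, pH 7.5 | doses = single compound addition by pin transfer, 100 nL per well | timing = 10–45 min, room temperature | detection = fluorescence polarization | repeats = duplicate plates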
* hit, by the source's call; x = not tested or not shown; & = joins results of further samples. The list is partial; the hit share may differ from the screen's.

A first look:
no.	molecule	BasE inh	KSHV LANA nucl
1	Cn1c(N2CCN(S(=O)(=O)c3ccc(Cl)cc3)CC2)nc2ccccc21	-1.5	-0.151
2	CNC(=O)Cn1cc(S(=O)(=O)Cc2ccccc2)c2ccccc21	-0.9	0.519
3	Cc1cccc(C)c1NC(=O)CSc1ncccc1C(=O)O	1.8	x

Results, repeating the preview:
no.	molecule	BasE inh	KSHV LANA nucl
1	Cn1c(N2CCN(S(=O)(=O)c3ccc(Cl)cc3)CC2)nc2ccccc21	-1.5	-0.151
2	CNC(=O)Cn1cc(S(=O)(=O)Cc2ccccc2)c2ccccc21	-0.9	0.519
3	Cc1cccc(C)c1NC(=O)CSc1ncccc1C(=O)O	1.8	x
4	O=S1(=O)c2cccc3cccc(c23)N1Cc1cccc(Br)c1	1.6	x
5	O=C(NCCCN1CCN(c2ccc(F)cc2)CC1)C1c2ccccc2C(=O)N2CCc3ccccc3C12 (stereo unspecified)	1.5	-0.388
6	Cc1ccc(S(C)(=O)=O)cc1C(=O)NC1CCC(C)CC1 (stereo unspecified)	-1.8	x
7	Cc1cc(C)c(-c2ccn(C(=O)c3cc(-c4ccccc4)oc3C)n2)[nH]1	-3.2	1.52
8	O=C(c1sc2ccccc2c1Cl)N1CCN(C(=O)C2CCCO2)CC1 (stereo unspecified)	x	-0.579
9	CC(O)(C(=O)NN=C1CCCC1)c1ccccc1 (stereo unspecified)	-0.8	-0.346
10	CCN(CC)S(=O)(=O)c1ccc(N2CCCC2=O)cc1Cl	4.8	0.037
11	Cc1nc2nc(N)[nH]c(=O)c2nc1C	1.5	0.142
12	CCn1c(=S)ccc2ccccc21	-1.8	x
13	C=CCNC(=O)COc1ccc2c(C)cc(=O)oc2c1	-3.6	x
14	O=S(=O)(Cc1ccccc1)N1CCCC(c2nc(-c3cccs3)no2)C1 (stereo unspecified)	-0.4	-0.582
15	CC(C)[N+]1(C)[C@@H]2CC[C@H]1CC(OC(=O)C(CO)c1ccccc1)C2 (stereo partly specified)	x	0.126

One compound at a time, as listed above. Order of screens: BasE inh | KSHV LANA nucl
C=CCNC(=O)COc1ccc2c(C)cc(=O)oc2c1 in the list: -3.6 | x
O=S1(=O)c2cccc3cccc(c23)N1Cc1cccc(Br)c1 in the list: 1.6 | x

Next structures
no.	molecule	BasE inh	KSHV LANA nucl
16	N#C/C(=C\c1ccc(N2CCCCC2)o1)C(N)=O	-82.3	4.81
17	Clc1ccc(-c2csc(-c3cccc(-n4cccc4)c3)n2)cc1	-1.0	-0.542
18	CCn1c(COc2ccc(Cl)c(C)c2)nc2cc(S(=O)(=O)N(C)C)ccc21	-0.1	x
19	C=CCn1cc(C(=O)c2cc(Cl)ccc2O)cc(C#N)c1=O	-0.3	x
20	O=C(CC1Sc2ccccc2NC1=O)Nc1ccc(F)cc1 (stereo unspecified)	1.3	-0.677
21	C=CC[C@H]1CC(C)=C[C@H](CC=C)N1C(C)=O	0.9	0.057
22	Cc1c(C(=O)NN2CCCCC2)nn(-c2ccc(Cl)cc2Cl)c1-c1ccc(I)cc1	-3.5	0.242&0.0535
23	Cc1ccccc1-c1nc(CS(=O)(=O)CC(=O)N2CCCC2)c(C)o1	-0.2	-0.344
24	CCCN(Cc1nc2cc(Cl)ccc2c(=O)[nH]1)C(=O)c1ccc(S(=O)(=O)N2CCCC2)cc1	1.5	x
25	CCOc1ccc(C2C(C(=O)c3ccc(C)o3)=C(O)C(=O)N2Cc2cccnc2)cc1OC (stereo unspecified)	2.3	0.446
26	COc1ccc(C(CC(=O)NCCc2ccco2)n2cccc2)cc1 (stereo unspecified)	1.3	-0.373
27	COc1nsnc1NS(=O)(=O)c1ccc(-n2c(-c3ccc4ccccc4n3)n[nH]c2=S)cc1	1.5	0.153
28	Nc1nc2nccnc2c(=O)[nH]1	5.6	0.216
29	N#CCCn1cc(C(=O)COc2ccccc2C#N)c2ccccc21	-1.2	x
30	Cc1nc2n(c(=O)c1CCN1CCC(c3noc4cc(F)ccc34)CC1)CCCC2	-0.9	-0.174&-0.231&-1.02

Structures above with a thiophene ring, fused or not (2):
no.	molecule	BasE inh	KSHV LANA nucl
8	O=C(c1sc2ccccc2c1Cl)N1CCN(C(=O)C2CCCO2)CC1 (stereo unspecified)	x	-0.579
14	O=S(=O)(Cc1ccccc1)N1CCCC(c2nc(-c3cccs3)no2)C1 (stereo unspecified)	-0.4	-0.582

Other structures follow:
no.	molecule	BasE inh	KSHV LANA nucl
31	COc1ccc2nc(NC(=O)C3CCC3)sc2c1	-0.5	0.573
32	Cc1nsc(N)c1C(=O)O	-1.2	x
33	COC(=O)C1CCN(C(=O)c2cc(S(N)(=O)=O)ccc2OC)CC1	1.1	x
34	COC(=O)CCc1ccc(OCC(O)CNC(C)C)cc1 (stereo unspecified)	x	-0.0545&-0.175
35	Cc1ccc(S(=O)(=O)CCSC2=CC(=O)CC(C)(C)S2)cc1	2.2	x
36	CN1CCN(NC(=O)CSc2ccc(Cl)cc2Cl)CC1	-0.5	x
37	Cn1nc(-c2ccc(Cl)cc2)c2cc(C(=O)NCC3CCCO3)sc21 (stereo unspecified)	-0.7	0.646
38	N#CC1=C(N)OC2=C(C(=O)CCC2)C12C(=O)N(CC(N)=O)c1ccccc12 (stereo unspecified)	3.1	x
39	CC(C)N(C(=O)Cn1c(SCC(=O)N2CCOCC2)nc2ccccc21)C(C)C	2.0	0.556
40	Cc1ccc(-c2nnc(NC(=O)c3ccc(S(=O)(=O)N4CCCC4)cc3)o2)c(C)c1	1.6	-0.762
41	O=C1NCCN1CCNC(=S)Nc1ccc(OC(F)(F)F)cc1	1.7	x
42	Nc1ccc(-c2nc3ccccc3o2)cc1	x	0.443
43	CCCN1CCC(NC(=O)Nc2ccccc2C(=O)OC)CC1	2.0	0.556
44	O=C(COc1ccccc1)Nc1ncn[nH]1	1.1	0.0825
45	N#C/C=C(\c1ccc(F)cc1)N1CCCCC1	-1.6	x
46	O=c1[nH]c(=O)n(-c2ccc(Cl)cc2)c(O)c1C=Nc1ccc(N2CCOCC2)cc1	-4.5	0.181
47	CCCCn1c(SCC(=O)NC(C)(C#N)C(C)C)nnc1C(CC)N(C)C (stereo unspecified)	-3.3	x
48	CCOc1cccc2cc(C(C)NCc3ccc(C)o3)oc12 (stereo unspecified)	-0.9	x
49	O=C(NCc1ccc2c(c1)OCO2)NCC1CCCC(CNC(=O)NCc2ccc3c(c2)OCO3)C1 (stereo unspecified)	-0.6	x
50	O=C(/C=C\Nc1ccccn1)c1ccc2c(c1)OCO2	3.8	0.206
51	CN1N=C(C(F)(F)F)CC1=O	1.5	-0.318
52	O=C(CSc1n[nH]c(=O)[nH]c1=O)N/N=C/c1ccccn1	-2.0	2.04
53	O=C1/C(=C/c2ccccc2)N=C2CCCCCN12	0.4	x
54	CCc1ccc(N2C(=O)C3C(C(=O)OC)=NN(C(C)=O)C3C2=O)cc1 (stereo unspecified)	1.4	-0.361
55	CC1(C)C(=O)C2(CCCCC2)C(=O)OC1c1ccc(Br)o1 (stereo unspecified)	0.6	-0.831
56	O=c1c2ccccc2nc(-c2cccs2)n1NCc1ccccc1F	1.7	x
57	CC(C)c1nnc(NC(=O)/C=C/c2ccc3c(c2)OCO3)s1	-0.5	x
58	C=CCc1c(C)nc(SCC(C)C)[nH]c1=O	-1.0	0.0635
59	Cc1cccc(NC(=O)CN(CC2CCCO2)C(=O)c2cc(-c3ccco3)nc3ccccc23)c1C (stereo unspecified)	-0.3	x
60	CCOC(=O)C1CCCN(S(=O)(=O)c2ccc(C)cc2)C1 (stereo unspecified)	1.2	-0.316
61	CCCN(CCO)CC1CCCCC1	1.5	-0.397
62	CC(C)CCn1c(=O)c2cccnc2n(Cc2cccc(Cl)c2)c1=O	0.3	-2.18
63	Cc1ccccc1Nc1nc(N)nc(COn2nnc3ccc(S(C)(=O)=O)cc32)n1	-0.8	x
64	Cc1ccc(Oc2ncccc2NC(=O)CSc2ccccn2)c2c1CCC2	3.1	x
65	CCCCOC(=O)c1ccc(O)cc1	3.1	1.14&-0.348
66	CCOC(=O)C(C#N)C1(O)C(=O)c2ccccc2C1=O (stereo unspecified)	3.3	-0.385
67	Cc1nc(NCc2ccc3c(c2)OCO3)nc2c1C(=O)c1ccccc1-2	-4.5	-0.964
68	CN=c1scc(-c2ccc(OC(F)F)cc2)n1/N=C/c1ccc(O)cc1	-2.0	x
69	CCn1c(O)c(N=NS(=O)(=O)c2ccc(C)cc2)c2cc(Cl)ccc21	0.0	0.794
70	CCCCN1C=C(C(=O)OC)C(c2cccc(OC)c2OC)C(C(=O)OC)=C1	1.1	-0.398
71	CN(C)S(=O)(=O)c1ccc2c(c1)C(CC(=O)O)OC2=O (stereo unspecified)	3.7	-0.521
72	O=C(Cn1cnnn1)NC1CCCc2ccccc21 (stereo unspecified)	2.1	x
73	Cn1c(C(=O)N2CCC(C(=O)NC3CCCc4ccccc43)CC2)cc2sccc21 (stereo unspecified)	0.1	-0.711
74	O=C(O)CCCn1c(=O)c2cc3c(=O)n(CCCC(=O)O)c(=O)c3cc2c1=O	-0.7	0.693
75	Cc1cc(C)cc(OCC(=O)NC2CCCCC2C)c1 (stereo unspecified)	1.9	x
76	N/C(CN1CCSCC1)=N\OC(=O)c1cccs1	1.3	-0.108
77	CC(SCc1cn2cc(Cl)ccc2n1)C(=O)O (stereo unspecified)	-4.3	x
78	Cn1c(=O)c(C2=NS(=O)(=O)c3ccccc3N2)c(O)c2ccccc21	0.2	-0.783
79	CC(C)C(=O)Nc1ccccc1OC(F)F	-0.5	x
80	Cc1cc(C)nc(SCC(=O)OCC(=O)N2CCc3ccccc32)n1	-2.5	x
81	COC(=O)c1c(NS(=O)(=O)c2cccs2)sc2c1CCCC2	0.9	-1.03
82	O=C(NN=C1CCCC1)C1CCN(S(=O)(=O)c2cccs2)CC1	-3.6	x
83	CC(C)(C)NC(=O)CCSc1nnc(-c2ccccc2)o1	-1.1	-0.406
84	CCC(c1nnc(SC(C)C(=O)NCc2ccc3c(c2)OCO3)n1Cc1ccccc1)N(C)C (stereo unspecified)	3.4	x
85	Cc1csc2nc(CSc3nnc(-c4ccccc4Cl)n3C3CCCC3)cc(=O)n12	-1.1	x
86	COc1ccc(C2C(C(=O)OC3CCCCC3)=C(C)NC3=C2C(=O)CCC3)c(OC)c1OC (stereo unspecified)	-1.0	-0.0005
87	O=C(SCc1cccs1)c1csc(C2COc3ccccc3O2)n1 (stereo unspecified)	1.5	x

Exported with two lines to a compound: entries from further up
Every second line gives: BasE inh | KSHV LANA nucl
84. CCC(c1nnc(SC(C)C(=O)NCc2ccc3c(c2)OCO3)n1Cc1ccccc1)N(C)C (stereo unspecified)
  3.4 | x
85. Cc1csc2nc(CSc3nnc(-c4ccccc4Cl)n3C3CCCC3)cc(=O)n12
  -1.1 | x
86. COc1ccc(C2C(C(=O)OC3CCCCC3)=C(C)NC3=C2C(=O)CCC3)c(OC)c1OC (stereo unspecified)
  -1.0 | -0.0005

Screens: PubChem BioAssay, ICCB-Longwood Screening Facility, Harvard Medical School
